# NPYLR7 agonist: mosquito NPYLR7 agonism. HEK293T NPYLR7/Galpha15, GCaMP6s calcium fluorescence. activation, % at 10 µM. actives 0.15% (n = 270,000). AID 1259423; in the data active = activation above about 40%;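 also: 0% = vehicle and 100% = reference agonist at the receptor; some compounds past the cut are filed as inactive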
# NPYLR7 agonist max-min: also measured in NPYLR7 agonist; calls as there; activation, %; measured here: Max-Min RFU normalised activation; some inactives read as strong as hits;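 span of the calcium signal over five minutes; 0% = vehicle and 100% = native peptide agonist; compound fluorescence can raise it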
# Starred values were filed as active, the others as inactive; & = joins results of further samples. Only part of the results is shown. The share of hits here may be higher or lower than overall.
molecule,NPYLR7 agonist,NPYLR7 agonist max-min
O=C(C=Cc1ccccc1)N(Cc1ccco1)C1CCS(=O)(=O)C1 (configuration not stated),14,4
CC1(C(=O)N2CCN(C(=O)c3ccco3)CC2)CCN1CCOc1ccccc1 (configuration not stated),3,3
CCOC(=O)c1c(NC(C)=O)sc2c1CCC(/C=N\NC(=O)c1ccncc1)=C2Cl,-2,-2
O=C(Cn1c(=O)oc2ccccc21)N1CCCCC1CCc1ccccn1 (configuration not stated),8,-1
CCCCN(CC(=O)Nc1cc(-c2ccccc2)nn1-c1ccc(C)cc1C)C(=O)COc1ccc(Cl)cc1,18,26
C=CCSc1nnc2c(n1)OC1(CCCCC1)Nc1ccccc1-2,1,-3
Cc1cnc(C)c(N2CCN(C(=O)CC3C(=O)NCCN3CCc3ccccc3)CC2)n1 (configuration not stated),14,5
CCOC(=O)Cc1n[nH]c(=S)n1C1CCCC1,-1,-4
O=C(c1nn(-c2ccc(Cl)cc2)c(=O)n(Cc2ccc(C(F)(F)F)cc2)c1=O)N1CCCC1,10,13
CN(C(=O)c1cccc(NC(=O)N(C)C2CCS(=O)CC2)c1)c1ccccc1 (configuration not stated),-10,-14
O=c1c2ccc(Cl)cc2nc(-c2cnc3ccccc3c2)n1Cc1ccccc1,7,3
CCOc1cc(Br)ccc1S(=O)(=O)NCc1ccc2c(c1)OCO2,0,-7
O=C(NCc1nnc(-c2ccccc2)o1)c1cccc2c1OCC2,2,-2
O=C(c1cnn2c(C(F)(F)F)cc(-c3ccc(Br)cc3)nc12)N1CCCc2ccccc21,5,3
O=C(NNC(=O)c1csc2c1CCCC2)c1ccc(S(=O)(=O)N2CCCC2)cc1,5,3

molecule,NPYLR7 agonist,NPYLR7 agonist max-min
CCOc1ccccc1C(CC(C)C)NC(=O)CN1C(=O)CCOc2ccccc21 (configuration not stated),0,-1
CCOC(=O)N1CCN(C(=O)CCc2cc3c(n2-c2ccc4c(c2)OCO4)-c2ccccc2CC3)CC1,5,0
Cc1cccc(C(=O)Nc2nc3c(s2)C(=O)CC(C(=O)N(C)Cc2csc(C)n2)C3)c1 (configuration not stated),19,2
COC1CCCC(OC(=O)c2cnn(C)c2-n2cccc2)C1 (configuration not stated),8,6
CCNC(=O)Cn1c(CO)c[nH]c1=S,-4,-5
CSC(Nc1ccccc1)N1CCOCC1 (configuration not stated),5,1
Cc1cc(C(=O)N(C/C=C/c2ccccc2)CCO)ccc1Cl,28,17
COc1cccc(N=Nc2c(-c3ccc([N+](=O)[O-])cc3)[nH]n(-c3ccccc3)c2=O)c1,-1,-2
Cc1ccc(C(=O)N(CC(=O)N2CC(=O)N(c3cccc(Cl)c3C)C2)C2CCCCC2)cc1,24,17
CCOC(=O)N1CCC(NCc2c(C(=O)N(C)Cc3ccccc3)nc3ccccn23)CC1,0&10,-3&13
Cc1ccc(N2C(=O)NC3CC2(C)Oc2ccccc23)cc1 (configuration not stated),-1,6
O=C(NCC1CNCCOC1)NS(=O)(=O)c1ccccc1 (configuration not stated),17,14
CN(Cc1nccn1CC(F)(F)F)CC1OCCc2ccccc21 (configuration not stated),-2,-5
Cc1cc(C)c(S(=O)(=O)N2CCC(C(=O)N3CCCC3c3ccccc3)CC2)c(C)c1 (configuration not stated),-1,3
Cc1ccc(NC(=O)CCCCSc2nnc(Cc3ccccc3)n2-c2ccc(Cl)c(Cl)c2)cc1C,23,19

molecule,NPYLR7 agonist,NPYLR7 agonist max-min
O=C(Nc1cccc(-c2ccco2)c1)C1CCN(C(=O)c2cc(=O)c3ccccc3o2)CC1,14,7
O=C(NNC(=O)c1ccc(Cl)cc1Cl)c1ccco1,10,3
CC(C)NC(=O)c1csc(CN(C(=O)Nc2ccc(Cl)cc2)C(C)C)n1,-2,9
CCOc1ccccc1-n1c(CN2CCN(C)CC2)n[nH]c1=O,2,-3
Cc1nc(CCNC(=O)c2cnn(-c3ccccn3)c2C)nc2c1CCCC2,6,5
CC1=CC(C)=NC2=C(c3ccccc3)S/C(=C3/C(=O)N(C)C(=S)N3C)N12,-1,-11
CCc1cc(CN(C)C(=O)C(=O)c2cccn2C)on1,-10,-13
CC1CCC(NC(=O)C(C)(C)CC(=O)c2ccccc2)CC1 (configuration not stated),-25,-31
O=S(=O)(c1ccccc1)N1CCN(c2nccs2)CC1,12,7
Cc1[nH]c(=O)c(C(=O)N(Cc2cnn(C)c2)C(C)C)c(C)c1Cl,0,0
Cc1ccc(-c2nn3c(C)nnc3c3ccccc23)cc1S(=O)(=O)N1CCCC1,-17,-23
COc1ccc(CC2(CO)CCN(Cc3cccc(C(C)=O)c3)CC2)cc1,-1,-2
COc1ccccc1-c1c(C)nn2c(N3CCCCC3)cc(C)nc12,4,2
NC(=O)Cn1nc2ccc(SCc3ccc(Cl)cc3)nn2c1=O,3,0
Cc1ccc(F)cc1S(=O)(=O)N(C)CCC=C1c2ccccc2CCc2ccccc21,-7,-12

molecule,NPYLR7 agonist,NPYLR7 agonist max-min
CSc1ccccc1C(=O)C1CCCN(Cc2ccc3c(c2)OCCO3)C1 (configuration not stated),-3,-1
Cc1cccc2sc(N(CCCN(C)C)C(=O)c3ccc(Br)s3)nc12,0,0
O=C(NCc1cccc(C(F)(F)F)c1)c1ccc2sc([C@@H]3O[C@H](CO)[C@H](O)[C@H](O)[C@H]3O)nc2c1,2,-1
CCOC(=O)c1cc(-c2ccc(CC)cc2)n(C2CCN(C(=O)CCC3CCCC3)CC2)n1,3,1
O=C(Nc1ccc2nc([C@H]3C[C@H](O)[C@@H](CO)O3)[nH]c2c1)Nc1ccc(Br)c2ccccc12,0,-5
CNC(=O)C(C1CCCC1)N1CCN(C(=O)c2ccc(OC)c(OC)c2)CC1 (configuration not stated),-4,4
O=C(NC1c2ccccc2-c2ccccc21)c1cccc([N+](=O)[O-])c1,-3,2
CCc1ccccc1NC(=O)C1CCCN1c1ncnc2ccccc12 (configuration not stated),3,6
Cc1nc2ccccc2n1CCOC(=O)C1=COCCC1,-2,-2
CC(=O)N(Cc1ccc(F)cc1)Cc1ccc(OS(=O)(=O)C(C)C)cc1,1,13
COc1ccc(S(=O)(=O)Oc2ccccc2CN(C(=O)c2cccc(F)c2)C2CC2)cc1,22,21
COc1ccc(OCc2n[nH]c(=S)n2-c2ccccc2F)cc1,-2,-2
CC(=O)Nc1cccc(C(=O)N2Cc3cnn(Cc4ccc(F)cc4)c3C2)c1,1,0
COc1cccc(Oc2cc(C(F)(F)F)nc(SCc3cccc(C)c3)n2)c1,3,8
COC(=O)c1ccccc1S(=O)(=O)N1CCCC1c1ccccn1 (configuration not stated),15,11

molecule,NPYLR7 agonist,NPYLR7 agonist max-min
O=C(c1cc(-c2ccccc2F)nc2cc(-c3ccccc3)nn12)N1CCN(c2ccccc2Cl)CC1,-3,5
O=C1NC2=C(C(=O)OC2)C(c2ccc(O)cc2)N1 (configuration not stated),3,3
CC(=O)N1CCc2c(sc(NC(=O)c3nc4ccccc4s3)c2C(N)=O)C1,4,2
Cc1ccc([N+](=O)[O-])cc1S(=O)(=O)Nc1cc2c3c(oc2c2ccccc12)CCCC3=O,-5,-9
Cc1ccccc1-c1cc2nc(NCc3ccccc3F)n(C)c(=O)c2s1,3,2
COc1ccc(/C=C2\N=C(c3cccc(C)c3)OC2=O)c(OC)c1OC,-2,-8
Cc1ccc(C(=O)O)cc1-c1cccc2c1CCNC2,2,2
O=C(c1ccc(CSc2nc(-c3ccccc3)cc(N3CCN(Cc4ccc5c(c4)OCO5)CC3)n2)o1)N1CCOCC1,12,12
COc1ccc(CCNC(=O)c2ccc(Cl)cc2NS(=O)(=O)c2cc(C)ccc2OC)cc1,6,0
CN(CC(=O)N1CCOCC1)C1CCCCC1,2,-1
O=C1c2cccc3cccc(c23)C(=O)N1CCS(=O)(=O)OCC(F)(F)C(F)F,-5,-8
CC1C(C)S(=O)(=O)CCN1CC1CCC1 (configuration not stated),17,12
Cc1ccc[n+](C2=C(c3c(C)[nH]n(-c4ccc(Cl)cc4)c3=O)C(=O)N(c3ccccc3F)C2=O)c1,-4,3
CC1(c2ccco2)NC(=O)N(CC(=O)N(c2ccccc2)C2CCCCC2)C1=O (configuration not stated),15,10
C=CCN(CC(=O)N(Cc1ccc(F)cc1)Cc1ccc(C)s1)C(=O)Nc1cccc(Cl)c1,1,-1

molecule,NPYLR7 agonist,NPYLR7 agonist max-min
CC1CN(C(=O)NC(C)c2ccc(NC(=O)NC3CC3)cc2)CC(C)(C)O1 (configuration not stated),6,5
CC1C(=O)N(c2ccc(F)cc2F)CCN1C(=O)CCc1ccccc1 (configuration not stated),-2,10
CC1(C(=O)Nc2ccncc2)CCN1C(=O)C1(c2ccc(Cl)cc2)CC1 (configuration not stated),1,1
Cc1ccc(CN(CCc2c[nH]c3ccccc23)C(=O)CN(C(C)C)S(=O)(=O)c2ccc(F)cc2)cc1,2,9
Cc1nccn1CCn1cnc(-c2ccccc2)c1-c1cccc2cccnc12,12,-3
Cc1c(C(=O)N2CC3(C)CC2CC(C)(C)C3)cc(-c2ccccc2)n1-c1ccccc1Cl (configuration not stated),-6,5
O=C(C1Cc2cc(F)ccc2O1)N1CCc2cc(F)cc(F)c21 (configuration not stated),0,-1
Cc1ccc(Cl)c(C(=O)NC2CCc3[nH]c4c(C)cc(Cl)cc4c3C2)c1 (configuration not stated),11,7
Cc1cccc(C)c1OCCNC(=O)Cc1cccs1,-1,-2
CC(C)(CO)NCC(O)COc1ccc2c(c1)CCC2 (configuration not stated),11,20
CC(=O)N1CCN(S(=O)(=O)c2cccc(C(=O)N(C)c3nccs3)c2)CC1,8,4
COc1cccc(C(=O)N2CCC(C(NC(=O)c3ccccc3C)C(=O)N3CCCC3)CC2)c1 (configuration not stated),19,19
Cn1c(=O)c2nc(N=Nc3c(O)[nH]c4ccccc34)cnc2n(C)c1=O,19,17
Nc1nnc(SCc2ccccc2F)s1,1,-2
COCC(=O)Nc1cc(C)nn1-c1ncnc2c1cnn2-c1cccc(C)c1C,5,3

molecule,NPYLR7 agonist,NPYLR7 agonist max-min
CCn1nc(C(=O)O)c2c1CCC(NCCN1CCCOC1=O)C2 (configuration not stated),-9,-14
CCOC(=O)C(N=Nc1ccccc1Cl)=C(C)O,-6,-11
CCCC(O)CN1CCC(=O)N(Cc2ccco2)Cc2cc3c(cc21)OCO3 (configuration not stated),0,6
Cc1ccc(F)c(NC2CCCN(C(=O)c3ccc(C(F)(F)F)cc3)C2)c1 (configuration not stated),-2,1
CC(C)(C)c1ccc(S(=O)(=O)N2CCC[C@@H]2C(=O)NCCCNC(=O)c2ccccc2)cc1,-8,-2
CSCCCNC(=O)c1sc2ccccc2c1Cl,-6,-1
C=CCCC(O)CN(Cc1c(C)nn(-c2ccccc2)c1Oc1ccccc1Cl)CC1CC1 (configuration not stated),4,4
CS(=O)(=O)c1ccc(C(=O)Nc2nc(-c3cccs3)cs2)cc1,-8,-12
Fc1cccc(Cc2noc(CN3CCCN(C4CCCCC4)CC3)n2)c1,2,-4
O=S(=O)(OCc1nc2ccccc2s1)c1ccc(Cl)cc1,-7,-15
Cc1cccc(CN2CCCC3(CCN(C(=O)CCn4cnnn4)C3)C2=O)c1 (configuration not stated),2,0
CCN(Cc1cccc(F)c1)C(=O)c1ccc(OC)cc1O,12,9
CN(Cc1ccc2c(c1)OCO2)c1ccc(C(=O)NC2CC2)cn1,-2&2,-1&1
Cc1cccn2c(CN3CCSCC3)c(C(=O)N(C)CCc3ccccc3)nc12,2,1
O=C(NCc1cccnc1N1CCOCC1)c1n[nH]c2c1CCCC2,3,1

molecule,NPYLR7 agonist,NPYLR7 agonist max-min
Cc1ncsc1C(=O)N1CCCN(CC2CC2)C(C(C)C)C1 (configuration not stated),-5,-6
COCc1nc(CNC(=O)c2c(C)c3cccc(C)c3n2C)no1,0,15
O=C(O)CN1C(=O)SC(=Cc2cccs2)C1=O,0,-5
COc1ccc(CN(CCc2c[nH]c3ccccc23)C(=O)CN(CC(C)C)C(=O)Nc2cccc(C(F)(F)F)c2)cc1OC,24,28
O=S(=O)(NCc1ccccc1)N1CCCCC1c1cccnc1 (configuration not stated),1,-2

# Reformatted with two lines to a compound: entries from further up.
# Every second line gives: NPYLR7 agonist	NPYLR7 agonist max-min
> Cc1ccc(F)c(NC2CCCN(C(=O)c3ccc(C(F)(F)F)cc3)C2)c1 (configuration not stated)
 : -2	1
> CC(C)(C)c1ccc(S(=O)(=O)N2CCC[C@@H]2C(=O)NCCCNC(=O)c2ccccc2)cc1
 : -8	-2
> CSCCCNC(=O)c1sc2ccccc2c1Cl
 : -6	-1
> C=CCCC(O)CN(Cc1c(C)nn(-c2ccccc2)c1Oc1ccccc1Cl)CC1CC1 (configuration not stated)
 : 4	4
> CS(=O)(=O)c1ccc(C(=O)Nc2nc(-c3cccs3)cs2)cc1
 : -8	-12
> Fc1cccc(Cc2noc(CN3CCCN(C4CCCCC4)CC3)n2)c1
 : 2	-4
> O=S(=O)(OCc1nc2ccccc2s1)c1ccc(Cl)cc1
 : -7	-15
> Cc1cccc(CN2CCCC3(CCN(C(=O)CCn4cnnn4)C3)C2=O)c1 (configuration not stated)
 : 2	0
> CCN(Cc1cccc(F)c1)C(=O)c1ccc(OC)cc1O
 : 12	9
> CN(Cc1ccc2c(c1)OCO2)c1ccc(C(=O)NC2CC2)cn1
 : -2&2	-1&1
> Cc1cccn2c(CN3CCSCC3)c(C(=O)N(C)CCc3ccccc3)nc12
 : 2	1
> O=C(NCc1cccnc1N1CCOCC1)c1n[nH]c2c1CCCC2
 : 3	1
> Cc1ncsc1C(=O)N1CCCN(CC2CC2)C(C(C)C)C1 (configuration not stated)
 : -5	-6
> COCc1nc(CNC(=O)c2c(C)c3cccc(C)c3n2C)no1
 : 0	15
> O=C(O)CN1C(=O)SC(=Cc2cccs2)C1=O
 : 0	-5
